UUG fidelity: alters start codon recognition fidelity in yeast; 350,000 compounds, 0.13% hits; activity score, % at 18.7 µM; S. cerevisiae UUG-firefly luciferase reporter, luminescence/redox ratio;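 active = replicate mean at a twofold rise or more, about +100% in these data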;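 also: firefly luciferase made from a UUG start codon reports start codon fidelity; reporter light over untreated wells divided by growth signal over untreated wells; some hits fall short of that in this replicate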
MT1-MMP act inh: inhibitors of human MT1-MMP activation. HT1080 RFP-PRO-GFP cells, GFP/RFP ratio fluorescence, overnight; percent of plate control window, DMSO zero. GFP/RFP ratio change, % at 20 µM. 360,000 compounds, 0.061% hits;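 active = GFP/RFP ratio change of at least 30% with cell ATP level not reduced by more than half and red fluorescence within 50% of control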; also: strong numbers were not always called active
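Material – HT1080 RFP-PRO-GFP cells · Control set – DMSO wells and RFP-L50D-GFP cells · Incubation – overnight cell settling, then overnight compound exposure, 37 °C, 5% CO2 · Compound dosing – single-point 20 µM compound, 1% DMSO · Read-out – GFP/RFP fluorescence ratio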
PABP polyA inh: PABP-poly(A) binding inhibition. AID 2014. P11940. PABP-poly(A) RNA binding, fluorescence polarization. 290,000 compounds, 1% hits. inhibition, % at 35 µM;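 active = 50% or more with normal probe brightness, or confirmed in later tests; inconclusive = above 50% with abnormal brightness, or retests that disagree; inactive = below 50% or failed in later tests; about a fifth of its hits are not listed in these tables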;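 also: calls also rest on retests at 20 µM and on dose response follow-up; controls were probe without protein and protein plus probe with vehicle; some compounds called inactive have numbers as strong as hits; many hits fall short of the cut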
Target sequence (P11940 whole entry, looked up): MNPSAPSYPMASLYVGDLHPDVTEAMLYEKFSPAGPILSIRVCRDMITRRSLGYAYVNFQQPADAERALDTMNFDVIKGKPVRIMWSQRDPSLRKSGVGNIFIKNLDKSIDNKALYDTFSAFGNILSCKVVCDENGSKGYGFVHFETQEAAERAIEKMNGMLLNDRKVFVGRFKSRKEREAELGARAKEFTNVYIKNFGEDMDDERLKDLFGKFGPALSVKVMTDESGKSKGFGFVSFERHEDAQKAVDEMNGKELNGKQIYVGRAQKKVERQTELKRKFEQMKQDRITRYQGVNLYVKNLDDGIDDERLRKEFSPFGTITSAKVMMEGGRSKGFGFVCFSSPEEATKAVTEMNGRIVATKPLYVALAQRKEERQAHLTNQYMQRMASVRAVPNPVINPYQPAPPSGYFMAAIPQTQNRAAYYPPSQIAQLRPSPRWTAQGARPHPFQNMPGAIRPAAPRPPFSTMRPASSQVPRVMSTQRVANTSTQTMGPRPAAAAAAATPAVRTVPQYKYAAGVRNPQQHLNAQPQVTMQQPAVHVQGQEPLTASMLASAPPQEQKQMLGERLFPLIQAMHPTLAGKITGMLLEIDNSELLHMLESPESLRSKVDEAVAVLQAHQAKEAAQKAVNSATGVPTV
eIF4H inh: inhibitors of RNA binding by human eIF4H | Q15056 | eIF4H fluorescence polarization binding assay | inhibition, % at 35 µM | 290,000 compounds, 0.94% hits | AID 2012;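 active = 50% or more with normal probe brightness, or confirmed in later tests; inconclusive = above 50% with abnormal brightness, or retests that disagree; inactive = below 50% or failed in later tests; about a fifth of its hits are not listed in these tables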;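 also: calls also rest on retests at 20 µM and on dose response follow-up; 0% = protein and probe with vehicle and 100% = probe without protein; strong numbers were not always called active; many hits fall short of the cut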
Rce1 inhib: yeast Ras-converting enzyme inhibition; Q03530; yeast membranes, quenched prenylated peptide cleavage fluorescence; calls only; 290,000 compounds, 0.27% hits; AID 2563;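 active = fall in fluorescence gain of 50% or more versus controls, with final raw signal at or below 3038400; inconclusive = same 50% fall but final raw signal above 3038400; inactive = fall in fluorescence gain under 50%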;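 also: plate controls were neutral control wells for no effect and wells lacking membranes for full effect; tested at 10 µM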
Target sequence (Q03530 whole entry, looked up): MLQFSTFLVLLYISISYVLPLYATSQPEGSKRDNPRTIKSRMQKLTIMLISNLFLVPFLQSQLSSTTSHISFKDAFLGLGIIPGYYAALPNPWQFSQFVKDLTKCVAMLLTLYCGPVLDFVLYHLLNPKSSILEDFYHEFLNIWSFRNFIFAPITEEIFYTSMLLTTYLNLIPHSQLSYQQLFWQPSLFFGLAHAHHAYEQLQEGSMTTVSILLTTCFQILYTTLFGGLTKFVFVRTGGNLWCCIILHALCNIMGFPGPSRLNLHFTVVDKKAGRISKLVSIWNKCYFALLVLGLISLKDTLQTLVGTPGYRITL
CSC inhib: cancer stem cell inhibition; AID 2717; inhibition, % at 7.5 µM; 300,000 compounds, 1.1% hits; cancer stem cell-like cells viability, luminescence;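 active = mean at 75% or more and at least half the replicates too; inconclusive = mean and replicates disagree; tested in HMLE shEcad cells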;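 also: 0% = median of negative and 100% = median of positive control wells; the first replicate is given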
HIV Env fusion: inhibitors of HIV Env-mediated cell fusion; HeLa-JRFL Env/CEM21 cell fusion, luciferase; inhibition, % at 12.3 µM; 360,000 compounds, 1.1% hits; AID 651610;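 active = mean replicate inhibition score of at least 50 and every replicate individually at or above 50; inconclusive = only one of the two criteria met; inactive = mean below 50 and not all replicates reaching 50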;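 also: 0% = plate neutral controls and 100% = maraviroc near 300 nM; one replicate is shown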
eIF4H inh retest: further read-out of eIF4H inh, marked with its call; inhibition, %; compound at 20 µM; confirmation average;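 mean of two retest wells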
PABP polyA inh retest: second read-out of PABP polyA inh, no call of its own (marks repeat the call); inhibition, %; compound at 20 µM; confirmation repeats;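 mean of two retest wells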
MT1-MMP act inh RFP: second read-out of MT1-MMP act inh, no call of its own (marks repeat the call); RFP signal change, %; measured here: RFP expression control read;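 0 = vehicle wells; hits needed this value within 50% of zero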
The depositor's hits bear a star. The list is partial; count on the stated rates, not on these rows.

Results for CN(C(=O)COC(=O)c1ccc(Cl)c(S(=O)(=O)NCc2ccccc2)c1)C1CCS(=O)(=O)C1 (stereo not drawn) ?
UUG fidelity: -5; MT1-MMP act inh: 1; HIV Env fusion: 2; MT1-MMP act inh RFP: 2

How did CCOC(=O)C1C(=O)NC(c2ccccc2)=NC1c1ccc(O)c(OC)c1 (stereo not drawn) do in these assays?
MT1-MMP act inh: 1; PABP polyA inh: 6; eIF4H inh: -7; Rce1 inhib: inactive; CSC inhib: 3; HIV Env fusion: 10; MT1-MMP act inh RFP: -3

What do the screens show for `CCOC(=O)c1ccc(NCc2cccnc2)cc1`?
UUG fidelity: -14; MT1-MMP act inh: 4; PABP polyA inh: -4; eIF4H inh: 3; Rce1 inhib: inactive; CSC inhib: -8; HIV Env fusion: 8; MT1-MMP act inh RFP: 0

How did CCOc1ccccc1NC(=O)c1csc(C)c1C do in these assays?
UUG fidelity: -11; MT1-MMP act inh: -5; PABP polyA inh: 3; eIF4H inh: -10; Rce1 inhib: inactive; CSC inhib: -3; HIV Env fusion: -21; MT1-MMP act inh RFP: 3

What do the screens show for `Cc1ccc(CCNC(=O)c2cc(S(=O)(=O)N3CCCC3)cn2C)cc1`?
UUG fidelity: -15; MT1-MMP act inh: -5; PABP polyA inh: -3; eIF4H inh: -11; Rce1 inhib: inactive; CSC inhib: -20; HIV Env fusion: 14; MT1-MMP act inh RFP: -2

Results for COc1ccc(C(=O)OCC(=O)NCCCc2ccccc2)cc1[N+](=O)[O-] ?
UUG fidelity: -9; MT1-MMP act inh: 1; PABP polyA inh: -1; eIF4H inh: -5; Rce1 inhib: inactive; CSC inhib: -6; HIV Env fusion: -6; MT1-MMP act inh RFP: 4

Results for CSc1ccc(CCNC(=O)CCc2nnc3ccc(N4CCOCC4)nn23)cc1 ?
UUG fidelity: -19; MT1-MMP act inh: 2; PABP polyA inh: -2; eIF4H inh: -5; Rce1 inhib: inactive; CSC inhib: -13; HIV Env fusion: -13; MT1-MMP act inh RFP: 2

What do the screens show for `Cn1c(NNC(=O)CCC2CCCCC2)cc(=O)n(C)c1=O`?
UUG fidelity: -18; MT1-MMP act inh: -2; PABP polyA inh: 2; eIF4H inh: -5; Rce1 inhib: inactive; CSC inhib: -4; HIV Env fusion: -19; MT1-MMP act inh RFP: 0

How did COc1cc(NC(=O)c2cc(-c3cccnc3)nc3ccc(Br)cc23)cc(OC)c1 do in these assays?
UUG fidelity: -21; MT1-MMP act inh: -6; PABP polyA inh: -8; eIF4H inh: -9; Rce1 inhib: inactive; CSC inhib: 5; HIV Env fusion: -24; MT1-MMP act inh RFP: -6

Results for Cc1cc(C)cc(OCC(=O)Nc2ccccc2C(=O)NCc2ccco2)c1 ?
UUG fidelity: -14; MT1-MMP act inh: -5; PABP polyA inh: 5; eIF4H inh: 2; Rce1 inhib: inactive; CSC inhib: -12; HIV Env fusion: -85; MT1-MMP act inh RFP: 0

Results for Cc1ccnc2nc(C(=O)NCCc3ccc(F)cc3)nn12 ?
MT1-MMP act inh: 2; PABP polyA inh: 8; eIF4H inh: 2; Rce1 inhib: inactive; CSC inhib: 7; MT1-MMP act inh RFP: -2

Results for O=C(C[n+]1cccc2ccccc21)c1ccc(NC(=O)c2ccccc2)cc1 ?
MT1-MMP act inh: -7; PABP polyA inh: 7; eIF4H inh: 30; Rce1 inhib: inactive; CSC inhib: 17; HIV Env fusion: -13; MT1-MMP act inh RFP: 2

What do the screens show for `COc1ccc(CCNC(=O)C2CCN(S(=O)(=O)c3ccc(C)cc3)CC2)cc1`?
UUG fidelity: -32; MT1-MMP act inh: 0; PABP polyA inh: 4; eIF4H inh: -6; Rce1 inhib: inactive; HIV Env fusion: -8; MT1-MMP act inh RFP: -4

What do the screens show for `O=C(OCC1OC(n2ccc(=O)[nH]c2=O)C(O)C1OC(=O)c1ccccc1)c1ccccc1` (stereo not drawn)?
UUG fidelity: 10; MT1-MMP act inh: 3; PABP polyA inh: -1; eIF4H inh: -4; Rce1 inhib: inactive; CSC inhib: -3; HIV Env fusion: -31; MT1-MMP act inh RFP: 2

How did CCOCCCNS(=O)(=O)c1ccc(NC(=O)c2ccc([N+](=O)[O-])cc2Cl)cc1 do in these assays?
UUG fidelity: -14; MT1-MMP act inh: 6; PABP polyA inh: -7; eIF4H inh: 0; Rce1 inhib: inactive; CSC inhib: -7; HIV Env fusion: 5; MT1-MMP act inh RFP: 0

How did O=C(NNC(=O)c1ccc([N+](=O)[O-])cc1C(=O)O)c1ccncc1 do in these assays?
UUG fidelity: 4; MT1-MMP act inh: 1; PABP polyA inh: 8; eIF4H inh: 3; Rce1 inhib: inactive; HIV Env fusion: 2; MT1-MMP act inh RFP: 4

What do the screens show for `O=C(NCCN1C(=O)S/C(=C\c2cccnc2)C1=O)C1=NN(c2ccccc2)C(=O)CC1`?
MT1-MMP act inh: -3; PABP polyA inh: 0; eIF4H inh: 4; Rce1 inhib: inactive; CSC inhib: -10; HIV Env fusion: 11; MT1-MMP act inh RFP: -1

Results for Cc1nc2nc[nH]n2c(=O)c1CCOC(=O)c1c(F)cccc1F ?
MT1-MMP act inh: 2; PABP polyA inh: -6; eIF4H inh: -14; Rce1 inhib: inactive; CSC inhib: 0; HIV Env fusion: 6; MT1-MMP act inh RFP: 3

What do the screens show for `CCc1cccc(NS(=O)(=O)c2ccc3c(c2)N(C)CCO3)c1`?
UUG fidelity: 10; MT1-MMP act inh: 3; Rce1 inhib: inactive; CSC inhib: 12; HIV Env fusion: 4; MT1-MMP act inh RFP: -19

Results for COc1ccccc1NC(=O)CSc1nnc(Cc2cccs2)n1C ?
MT1-MMP act inh: 0; Rce1 inhib: inactive; CSC inhib: -6; HIV Env fusion: 5; MT1-MMP act inh RFP: 1

How did OCc1ccccc1SSc1ccccc1CO do in these assays?
UUG fidelity: -40; MT1-MMP act inh: -8; Rce1 inhib: inactive; CSC inhib: 28; HIV Env fusion: -13; MT1-MMP act inh RFP: -7

Results for Cc1ccccc1C(=O)N1CCC(C(=O)N(C)CC(=O)Nc2cccc(F)c2)CC1 ?
UUG fidelity: 4; MT1-MMP act inh: 0; PABP polyA inh: -1; eIF4H inh: -10; Rce1 inhib: inactive; CSC inhib: -14; MT1-MMP act inh RFP: 2

What do the screens show for `Nn1c(Cc2cccc3ccccc23)nnc1SCC(=O)NCC1CCCO1` (stereo not drawn)?
MT1-MMP act inh: 6; Rce1 inhib: inactive; CSC inhib: 2; HIV Env fusion: 14; MT1-MMP act inh RFP: 3

What do the screens show for `Cc1sc(N2C(=O)C3C4C=CC(C4)C3C2=O)c(C#N)c1C` (stereo not drawn)?
MT1-MMP act inh: 3; PABP polyA inh: 10; eIF4H inh: 0; Rce1 inhib: inactive; CSC inhib: 6; HIV Env fusion: -3; MT1-MMP act inh RFP: 2

How did O=C(O)CCCn1cc(NC(=O)c2cccc(F)c2)cn1 do in these assays?
MT1-MMP act inh: 1; PABP polyA inh: -20; eIF4H inh: -5; Rce1 inhib: inactive; CSC inhib: -20; HIV Env fusion: -3; MT1-MMP act inh RFP: 4

What do the screens show for `Cc1cccn2c(=O)c3cc(C(=O)NCCCN4CCCC4=O)n(C)c3nc12`?
UUG fidelity: 1; MT1-MMP act inh: 1; PABP polyA inh: -1; eIF4H inh: 12; Rce1 inhib: inactive; CSC inhib: 5; HIV Env fusion: inconclusive; MT1-MMP act inh RFP: 0

What do the screens show for `O=C(Cc1ccccc1)NC(Nc1cccc2ccccc12)C(Cl)(Cl)Cl` (stereo not drawn)?
UUG fidelity: -4; MT1-MMP act inh: 5; PABP polyA inh: 1; eIF4H inh: -13; Rce1 inhib: inactive; CSC inhib: -10; MT1-MMP act inh RFP: -5

How did COc1ccc(NC(=O)c2cc3ccccc3cc2OC)cc1 do in these assays?
UUG fidelity: -14; MT1-MMP act inh: -2; PABP polyA inh: 9; eIF4H inh: 86; Rce1 inhib: inactive; CSC inhib: 44; HIV Env fusion: -117; eIF4H inh retest: -11; PABP polyA inh retest: 4; MT1-MMP act inh RFP: -7

Results for Fc1ccc(CNc2nc(-c3cccnc3)nc3ccccc23)cc1 ?
UUG fidelity: 2; MT1-MMP act inh: -7; PABP polyA inh: -3; eIF4H inh: -5; Rce1 inhib: inactive; CSC inhib: 0; HIV Env fusion: 6; MT1-MMP act inh RFP: -8

How did Cc1ccc(C(=O)NC2CCS(=O)(=O)C2)cc1S(=O)(=O)N1CCOCC1 (stereo not drawn) do in these assays?
UUG fidelity: 21; MT1-MMP act inh: 1; PABP polyA inh: 0; eIF4H inh: 0; Rce1 inhib: inactive; CSC inhib: -2; HIV Env fusion: -8; MT1-MMP act inh RFP: 4

How did Cn1cc([N+](=O)[O-])c(C(=O)Nc2ccn(Cc3c(F)c(F)cc(F)c3F)n2)n1 do in these assays?
MT1-MMP act inh: -11; PABP polyA inh: -4; eIF4H inh: 8; Rce1 inhib: inactive; CSC inhib: 40; HIV Env fusion: 8; MT1-MMP act inh RFP: -7

How did COc1ccc(OC)c(C2C3CN(C(C)C)CC=C3C(C#N)=C(N)C2(C#N)C#N)c1 (stereo not drawn) do in these assays?
UUG fidelity: 3; MT1-MMP act inh: -85; PABP polyA inh: inconclusive; eIF4H inh: inconclusive; Rce1 inhib: inactive; CSC inhib: 4; HIV Env fusion: -13; MT1-MMP act inh RFP: -2

What do the screens show for `O=C(CC1NCCN(Cc2ccccc2)C1=O)Nc1ccc(Cl)cc1` (stereo not drawn)?
MT1-MMP act inh: 2; PABP polyA inh: 5; eIF4H inh: 4; Rce1 inhib: inactive; CSC inhib: -5; HIV Env fusion: 14; MT1-MMP act inh RFP: -1

How did Oc1ccc(C[C@H]2CNC(=S)N2CC2CCCN2C[C@H](Cc2ccccc2)N2C[C@H](Cc3ccc(O)cc3)N(CC3CCCCCC3)C2=S)cc1 (stereo partly drawn) do in these assays?
UUG fidelity: -11; MT1-MMP act inh: 6; HIV Env fusion: 15; MT1-MMP act inh RFP: -9

What do the screens show for `CCOC(=O)Cc1nnc(NC(=O)CSc2nnc3c4ccccc4n(C)c3n2)s1`?
UUG fidelity: -12; MT1-MMP act inh: 5; PABP polyA inh: 14; eIF4H inh: 6; Rce1 inhib: inactive; MT1-MMP act inh RFP: 5

Results for CN1CCN(C(=O)CCc2nc3ccccc3n2-c2ccccc2)CC1 ?
UUG fidelity: -14; MT1-MMP act inh: 3; PABP polyA inh: 16; eIF4H inh: -7; Rce1 inhib: inactive; CSC inhib: -4; HIV Env fusion: -11; MT1-MMP act inh RFP: 4

Some of these compounds in order of length of the SMILES, rising:
How did Cc1ccc(C(=O)NC2CCS(=O)(=O)C2)cc1S(=O)(=O)N1CCOCC1 (stereo not drawn) do in these assays?
UUG fidelity: 21; MT1-MMP act inh: 1; PABP polyA inh: 0; eIF4H inh: 0; Rce1 inhib: inactive; CSC inhib: -2; HIV Env fusion: -8; MT1-MMP act inh RFP: 4

How did Cn1cc([N+](=O)[O-])c(C(=O)Nc2ccn(Cc3c(F)c(F)cc(F)c3F)n2)n1 do in these assays?
MT1-MMP act inh: -11; PABP polyA inh: -4; eIF4H inh: 8; Rce1 inhib: inactive; CSC inhib: 40; HIV Env fusion: 8; MT1-MMP act inh RFP: -7

How did Oc1ccc(C[C@H]2CNC(=S)N2CC2CCCN2C[C@H](Cc2ccccc2)N2C[C@H](Cc3ccc(O)cc3)N(CC3CCCCCC3)C2=S)cc1 (stereo partly drawn) do in these assays?
UUG fidelity: -11; MT1-MMP act inh: 6; HIV Env fusion: 15; MT1-MMP act inh RFP: -9

Screening results (PubChem BioAssay)
